Source: PubChem (National Center for Advancing Translational Sciences (NCATS))
LASV entry inh: qHTS for Inhibitors of binding or entry into cells for Lassa Virus; Lassa virus pseudotype entry inhibition, cell reporter; control for the full effect not named in the record; Potency, µM (highest dose often 37.9 µM), inactives show at the top dose activity change, negative = inhibition, hits mostly inhibitors; 300,000 compounds, 1.2% hits; active means well fitted inhibition curve with a large enough effect; inconclusive means small, poorly fitted or top-dose-only effect, or effect the other way; inactive means flat fitted curve, though single readings scatter; tested in HEK293 cells; note: % is set by controls: 0 for no effect and ±100 for the full control effect; nearly all actives have a fitted effect of over 50% in size; luciferase read-out
Cruzain Triton: qHTS Assay for Promiscuous and Specific Inhibitors of Cruzain (with detergent); Potency, µM, for the others: max response, negative = inhibition, most hits filed as inhibitors; 200,000 compounds, 0.43% hits; Cruzipain (Trypanosoma cruzi), P25779; purified cruzain, Z-FR-AMC fluorescence, 0.01% Triton;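 note: plate controls were neutral wells for no effect and buffer without enzyme for full effect; nearly all actives have a fitted effect of over 40% in size; top concentration of the series not given in the record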
Target sequence (P25779 123-467 limits assumed): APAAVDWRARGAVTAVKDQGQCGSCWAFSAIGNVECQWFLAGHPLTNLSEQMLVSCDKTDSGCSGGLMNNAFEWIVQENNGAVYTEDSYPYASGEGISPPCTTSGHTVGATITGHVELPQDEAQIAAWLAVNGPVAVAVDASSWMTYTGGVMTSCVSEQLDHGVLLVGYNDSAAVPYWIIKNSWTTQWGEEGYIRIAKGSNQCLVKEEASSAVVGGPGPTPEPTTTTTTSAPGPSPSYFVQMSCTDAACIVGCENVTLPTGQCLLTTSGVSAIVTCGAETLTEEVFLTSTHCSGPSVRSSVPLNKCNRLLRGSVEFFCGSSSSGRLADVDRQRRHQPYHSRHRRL
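Enzyme 1.5 nM, Z-FR-AMC 2 uM, NaOAc 100 mM pH 5.5, DTT 5 mM, Triton X-100 0.01%; 15 min RT compound preincubation; kinetic ex360/em450, 60 s delta.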
2A StopGo: High Throughput Screening for Foot and Mouth Disease Virus Antivirals; 410,000 compounds, 1.2% hits; human cells with a luciferase reporter of 2A StopGo recoding; control for the full effect not named in the record; Potency, µM (highest dose often 57.9 µM), for inactives: at the highest dose signal change, negative = less light; AID 1159524, 2015; active = well fitted falling curve with a large enough effect; inconclusive = small, poorly fitted or top-dose-only effect; inactive = no such curve, though single readings can be large or run the other way; tested in HEK293T cells; note: % is set by controls: 0 for no effect and ±100 for the full control effect; nearly all actives have a fitted effect of over 45% in size; luciferase light after 4 h
Marburg entry inh: qHTS for inhibitors of binding or entry into cells for Marburg Virus | 300,000 compounds, 1.8% hits | Potency, µM (series often up to 37.8 µM), without a hit: at the top dose activity change, negative = inhibition, most hits filed as inhibitors | AID 540276, 2011 | Marburg virus pseudotyped entry inhibition, cell reporter; control for the full effect not named in the record; about a third of the inactives were read at about 46 µM; active = well fitted inhibition curve with a large enough effect; inconclusive = small, poorly fitted or top-dose-only effect, or effect the other way; inactive = flat fitted curve, though single readings scatter; tested in HEK293 cells; about a fifth of its hits are not listed in these tables; note: % is set by controls: 0 for no effect and ±100 for the full control effect; luciferase read-out
Cruzain noTriton: qHTS Assay for Promiscuous and Specific Inhibitors of Cruzain (without detergent); Cruzipain (Trypanosoma cruzi), P25779; purified cruzain, Z-FR-AMC fluorescence, no detergent; Potency, µM, for inactives: max response, negative = inhibition, most hits filed as inhibitors; 200,000 compounds, 2.3% hits;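 note: plate controls were enzyme without inhibitor for no effect and buffer without enzyme for full effect; nearly all actives have a fitted effect of over 40% in size; top concentration of the series not given in the record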
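Detergent-free condition (0.00005% Triton X-100) in acetate buffer pH 5.5 with DTT. 1.5 nM enzyme and compound were pre-mixed 15 min, then 2 uM Z-FR-AMC substrate added; reaction progress from fluorescence change between first and third reads (60 s).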
RE007 growth inh: qHTS Assay for Inhibitors of the HIV-1 protein Vpr; S. pombe RE007 Vpr strain, BacTiter-Glo ATP luminescence, 24 h; control for the full effect not named in the record; Potency, µM (series often up to 92.2 µM), without a hit: at the top dose activity change, negative = less growth; 360,000 compounds, 0.21% hits; active = well fitted falling curve with a large enough effect; inconclusive = small, poorly fitted or top-dose-only effect; inactive = no such curve, though single readings can be large or run the other way;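 note: % is set by controls: 0 for no effect and ±100 for the full control effect; nearly all actives have a fitted effect of over 50% in size; the assay follows cell death caused by Vpr and the record does not say whether a fall means rescue or toxicity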
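Fission yeast strain RE007, carrying one chromosomally integrated HIV-1 vpr copy, was seeded at OD 0.01 in PMG+AL medium with 23 nL pinned compound. After 24 h at 30 °C and 99% humidity, viability was read by BacTiter-Glo luminescence.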
NS1 inh: qHTS Assay for Inhibitors of Influenza NS1 Protein Function. Potency, µM (top dose mostly 46.1 µM), without a hit: top-dose activity, positive = more growth. 270,000 compounds, 0.4% hits. S. cerevisiae slowed by influenza A NS1, growth recovery by OD600; active means well fitted rising curve with a large enough effect; inconclusive means small, poorly fitted or top-dose-only effect; inactive means no such curve, though single readings can be large or run the other way; note: nearly all actives have a fitted effect of over 50% in size
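A cell-based growth assay was used: compounds that relieve NS1-induced slow growth of budding yeast raise OD600. Assay medium was yeast nitrogen base with ammonium sulphate and -URA supplement, pH 6.0, with 2% galactose.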
SARS PLP yeast: qHTS of Yeast-based Assay for SARS-CoV PLP; Potency, µM (series often up to 32.9 µM), without a hit: top-dose activity, positive = growth rescue; S. cerevisiae expressing SARS-CoV PLpro, growth rescue; control for the full effect not named in the record; 330,000 compounds, 0.19% hits; active means well fitted rising curve with a large enough effect; inconclusive means small, poorly fitted or top-dose-only effect; inactive means no such curve, though single readings can be large or run the other way; note: 0% is about no effect; nearly all actives have a fitted effect of over 55% in size; growth read by luminescence after 48 h
An asterisk follows results filed as active; ? = inconclusive; / = no result given; [ ] = remark or other dose. Unless noted, calls come from the whole dose curve; as a rule, active = well fitted curve in the direction sought with a large enough effect; inconclusive = small, poorly fitted or top-dose-only effect, or another doubt; inactive = no such curve, though single readings can be large; an effect the other way counts as inactive or inconclusive. Potency is the fitted concentration of half-maximal effect.

Results follow in this order: LASV entry inh	Cruzain Triton	2A StopGo	Marburg entry inh	Cruzain noTriton	RE007 growth inh	NS1 inh	SARS PLP yeast
COc1cccc(-c2nc3c(C#N)c[nH]n3c2NC2CCCC2)c1OC
  -13%[46.1 µM]	-6.7%	2%	-19%[46.1 µM]	?	/	/	/
CC(=O)N(CCC1(C(C)C)CCOC(C)(C)C1)C(C)c1cccs1 (stereo not given)
  ?	/	-11%	-22%[46.1 µM]	/	17%	-7%	-1%
O=C(CCNC(=O)c1ccccc1Cl)NCCc1ccc(C(F)(F)F)cc1
  -2%[46.1 µM]	/	25%	-2%[46.1 µM]	/	-10%	-46%	-1%
COc1ccc(NC(=O)COC(=O)CC2CCCC2)cc1
  30%[46.1 µM]	/	-2%	-14%[46.1 µM]	/	-7%	/	6%
COc1ccc(NC(=O)NNC(=O)c2cc(C3CC3)nc3ccccc23)c(OC)c1
  2%	/	?	-12%	/	-3%	15%	6%
CCOc1ccc(N(Cc2ccc(OC)cc2)C(=O)c2ccco2)cc1
  ?	/	-6%	-8%[46.1 µM]	/	16%	/	-5%
COc1ccc(NC(=O)c2sc3nc(C)nc(N4CCN(c5ccccn5)CC4)c3c2C)c(OC)c1
  ?	/	?	?	/	0%	6%	-14%
Cc1ccc(C(c2nnnn2C(C)(C)C)N2CCc3ccccc3C2)cc1 (stereo not given)
  /	4.6%	/	-7%	0%	/	-2%	4%
CCOC(=O)C1CCN(C(=O)Nc2ccc(OC)c(OC)c2)CC1
  3%	0.0%	-8%	6%	-17%	-8%	-7%	11%
NC(=O)CC(NC(=O)c1ccccc1)c1ccc(NCCc2cccc(F)c2)c([N+](=O)[O-])c1 (stereo not given)
  /	/	-14%	/	/	-6%	0%	0%
COc1ccccc1/C=C/C(=O)c1ccc(NC(C)=O)cc1
  11µM*	-11%	?	13µM*	-2%	-8%	-20%	-45%
COc1ccc(C(=O)NNC(=O)CSc2nnc(COc3ccccc3)n2C)cc1
  -1%	-3.0%	0%	2%	-9%	-8%	4%	-3%
CCc1cc2c(SCC(=O)c3cccs3)ncnc2s1
  7%	-4.2%	36%[activator]	-4%	?	-6%	4%	0%
CC(=O)N1CCCC(C(=O)c2ccc3c4c(cccc24)CC3)C1 (stereo not given)
  /	/	12%	/	/	12%	5%	1%
C(#CCN1CCOCC1)COC/C=C/c1ccccc1
  -27%	5.4%	7%	20%	-6%	1%	1%	3%
CCOc1ccc(NC(=O)C(CC)n2c(=O)c(-c3ccccc3NC(C)=O)nc3ccccc32)cc1 (stereo not given)
  -4%[46.1 µM]	-3.0%	-19%	-28%[46.1 µM]	-5%	/	/	/
CCOC(=O)C1=C(C)NC(=O)C1(NC(=O)c1cccnc1)C(F)(F)F (stereo not given)
  7%	5.2%	13%	0%	9%	6%	-5%	13%
CC(C)Cn1c(CN2CCN(C(=O)c3ccco3)CC2)nc2c1c(=O)n(C)c(=O)n2C
  16%	/	6%	2%[46.1 µM]	/	-2%	/	-3%
COc1ccc(C2c3c(-c4ccccc4O)n[nH]c3C(=O)N2CCc2ccccc2)cc1 (stereo not given)
  ?	-10%	-25%	?	32µM*	/	/	/
Cc1c(C(=O)N2CCC(C(=O)Nc3ccc(F)cc3)CC2)sc2nc[nH]c(=O)c12
  -9%[46.1 µM]	0.1%	-8%	/	-7%	/	/	/
Cc1ccc2c(=O)cc(C(=O)Nc3nnc(CC(C)C)s3)oc2c1C
  1%[46.1 µM]	-3.0%	-23%	25%[46.1 µM]	4%	/	/	/
COc1ccc(-c2cc(C(F)(F)F)nc(SCC(=O)N3CC(C)OC(C)C3)n2)cc1OC (stereo not given)
  0%	-3.3%	0%	2%	?	-1%	1%	-15%
CCC1CN(C(=O)Nc2ccc(C(=O)O)cc2)c2cc(Cl)ccc2O1 (stereo not given)
  26%[46.1 µM]	-4.8%	-8%	6%[46.1 µM]	3%	/	/	/
CN(CC#CCC(c1ccccc1)c1ccccc1)C(C)(C)C
  ?	2.9%	-23%	?	10%	0%	-7%	-5%
O=C(O)c1cc(NCc2ccc3c(c2)OCO3)ccc1N1CCOCC1
  13%	2.8%	21%	-25%	4%	23%[3.69 µM]	-10%	-5%
NC(=O)C1CCN(c2nc3ccccc3nc2NS(=O)(=O)c2ccc(Br)cc2)CC1
  10%	/	11%	-19%	/	14%	/	-2%
Oc1ccc(Cl)cc1C=NCCc1ccccc1
  5%	-3.5%	13%	24%	-8%	-15%	8%	4%
O=C(COc1ccc2c(c1)OCO2)Nc1nnc(Cc2ccccc2)s1
  -8%	/	-2%	-15%[46.1 µM]	/	-26%	4%	-1%
Cc1c(C)n(Cc2ccc(F)cc2)c2ccc(C(=O)Nc3ccc(Cl)cc3)cc12
  -7%[46.1 µM]	2.9%	2%	/	25µM*	/	/	/
COc1ccc(CCNC(=O)CSc2nc3cc(Cl)ccc3o2)cc1OC
  -25%	-2.7%	-43%	-12%	5%	15%	-1%	0%
CSCCC(NC(=O)c1ccco1)C(=O)N(C)CC(=O)Nc1ccccc1Br (stereo not given)
  -10%	/	-2%	1%	/	14%	/	2%
O=C(CN(C(=O)C1CSC(=O)C1)c1cccc(F)c1)NCc1ccc2c(c1)OCO2 (stereo not given)
  /	/	-5%	7%[46.1 µM]	/	3%	3%	7%
CC(C)CC(c1nnnn1C1CCCCC1)N1CCN(C(=O)c2ccco2)CC1 (stereo not given)
  /	/	47%[activator]	-7%[46.1 µM]	/	-7%	-5%	1%
CC(Oc1ccc(Cl)cc1C(N)=O)C(=O)N1CCc2ccccc21 (stereo not given)
  20%	/	5%	0%	/	11%	/	-7%
COc1ccc(Cl)cc1NC(=O)CCS(=O)(=O)c1ccc(C)cc1
  -12%	/	-3%	-9%	/	1%	2%	1%
NC(=O)c1ccccc1OCC(=O)N1CCCc2ccccc21
  -5%[46.1 µM]	/	13%	?	/	-3%	8%	1%
CC(=O)c1ccc(NC(=O)C2CC(c3ccc(F)cc3)=NO2)cc1 (stereo not given)
  7%	6.3%	5%	16%	5%	-7%	-9%	2%
Fc1ccccc1/C=N/n1c(C2CCCCC2)n[nH]c1=S
  /	/	-22%	/	/	7%	-31%	-1%
CC[C@H](C)C(C(=O)N1CCN(C(=O)OC(C)(C)C)CC1)n1cc(C(Cc2ccc(O)cc2)NC(=O)OC(C)(C)C)nn1 (stereo not given in full)
  /	/	-10%	/	/	-6%	1%	1%
CC(C)c1ccc(OCC(=O)Nc2ccncc2)cc1
  ?	/	-21%	10%[46.1 µM]	/	5%	-3%	-3%
c1ccc2oc(-c3ccn[nH]3)cc2c1
  ?	/	44%[activator]	?	/	-6%	-4%	-3%
COc1cccc(CN2CCC(Oc3ccc(C(=O)NCc4ccccn4)cc3)CC2)c1O
  /	/	?	/	/	-14%	-14%	5%
CCOC(=O)CSc1nnc(CSc2nc3sc4c(c3c(=O)[nH]2)CCCC4)n1-c1ccccc1
  1%	-9.0%	-9%	2%	?	4%	?	0%
O=C(COc1ccccc1)Nc1ccc(OCc2cc(=O)n3ccsc3n2)cc1
  -10%[46.1 µM]	-0.6%	-9%	9%[46.1 µM]	-1%	/	/	/
CSc1cccc(NC(=S)N2CCCN(Cc3cccc(Cl)c3)C2)c1
  ?	/	-4%	4.5µM*	/	9%	/	0%
COc1ccc(Cn2c(C(=O)O)c(CNC3CCCC3)c3ccc(OC)cc32)cc1
  13%[46.1 µM]	-2.5%	4%	/	-4%	/	/	/
COc1ccc(CCNC(=O)C2CCN(Cc3nc(-c4cccc(Cl)c4)oc3C)CC2)cc1OC
  -10%	4.0%	0%	?	1%	-1%	-8%	0%
Cn1c(Cc2ccc3c(c2)OCO3)nnc1SCC(=O)NC(C)(C)C
  5%	/	-8%	6%	/	-3%	/	-1%
COc1cc([N+](=O)[O-])c2nccnc2c1
  18%[46.1 µM]	/	-8%	12%[46.1 µM]	/	-10%	4%	-1%
O=C(CC(=O)N1CCN(c2ccccn2)CC1)Nc1ccc2nc3n(c(=O)c2c1)CCCCC3
  /	0.9%	-15%	1%	-2%	-2%	-46%	-1%
COc1ccc(NC(=S)NCC(c2cccnc2)N2CCOCC2)cc1 (stereo not given)
  7%[46.1 µM]	/	17%	-18%[46.1 µM]	/	-6%	/	-3%
CCOc1ccc(C2CC(c3cccc(OC)c3)Nc3ncnn32)cc1 (stereo not given)
  /	1.2%	-3%	3%	2%	0%	-48%	-2%
COC(=O)CNC(=O)C1CCN(c2nc(C)cc(C)n2)CC1
  4%	1.8%	-15%	10%	2%	-10%	1%	-3%
O=C(CCCn1c(=O)c2sccc2n(Cc2ccc(Cl)cc2)c1=O)NCc1ccc2c(c1)OCO2
  23%[46.1 µM]	-3.7%	0%	3%[46.1 µM]	-11%	/	/	/
COc1ccc(N2CC(C(=O)Nc3nnc(SCc4cccnc4)s3)CC2=O)cc1 (stereo not given)
  2%	/	-11%	18%	/	16%	-1%	-7%
c1ccc(Nc2nc(NCc3ccco3)c3ccccc3n2)cc1
  13µM*	/	14µM*	?	/	13%	-65%	-1%
COc1cc(OC)c(OC)cc1/C=N/NC(=O)c1ccc2nc[nH]c2c1
  25%[46.1 µM]	/	12%	?	/	2%	3%	0%
Cc1ccc(NC(=O)C2=C(C(=O)O)CCCC2)cc1F
  -1%[46.1 µM]	/	18%	11%[46.1 µM]	/	2%	17%	-6%
CC(=O)c1c(C)[nH]c(C(=O)OCC(=O)NNC(=O)c2ccc([N+](=O)[O-])cc2)c1C
  29%[46.1 µM]	/	-4%	-8%[46.1 µM]	/	14%	/	4%
O=C(O)C1C2C=CC3(O2)C1C(=O)N1c2ccccc2C2OCCC2C13 (stereo not given)
  -21%	4.2%	/	11%	-10%	9%	0%	/
